# Bioassay records (PubChem BioAssay)
# GLA inh pH 4.5: alpha-galactosidase A (human) inhibition, pH 4.5; 230,000 tested, under 10 active; P06280; purified enzyme, 4-MU-alpha-Gal fluorescence, pH 4.5; activity change, negative = inhibition, % at 105 µM; inconclusive = small, poorly fitted or top-dose-only inhibition, or a rising curve; inactive = flat fitted curve, though single readings scatter; no compound was filed as active;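 also: 0% = full activity with enzyme and -100% = basal without enzyme; dose as in the result columns while the protocol names 77 µM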
# Target sequence (P06280 whole entry, looked up): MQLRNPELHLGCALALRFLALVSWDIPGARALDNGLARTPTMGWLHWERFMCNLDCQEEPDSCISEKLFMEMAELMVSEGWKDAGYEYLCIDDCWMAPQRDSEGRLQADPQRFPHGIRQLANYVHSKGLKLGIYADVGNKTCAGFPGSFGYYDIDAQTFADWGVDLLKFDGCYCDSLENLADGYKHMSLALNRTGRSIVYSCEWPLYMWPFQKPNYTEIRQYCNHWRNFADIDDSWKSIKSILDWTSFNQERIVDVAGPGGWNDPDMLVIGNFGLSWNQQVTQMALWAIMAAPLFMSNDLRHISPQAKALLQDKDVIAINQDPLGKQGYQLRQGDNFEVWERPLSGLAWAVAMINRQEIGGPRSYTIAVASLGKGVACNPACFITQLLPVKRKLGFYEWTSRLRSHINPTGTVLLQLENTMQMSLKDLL
# Rango-impB inh: inhibitors of Rango-importin beta complex formation; Q14974; Rango CFP/YFP FRET sensor + importin beta, 45 min; Potency, µM (highest dose often 92.2 µM), for inactives: top-dose inhibition of complex formation; 340,000 tested, 0.031% active; AID 540263; active = rising FRET ratio curve, often small or poorly fitted; inconclusive = mostly compound fluorescence or quenching in the first reads; inactive = flat curves in all reads;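 also: potency is read from the fitted curve at half-maximal effect; 0% = DMSO wells and 100% = buffer wells lacking importin beta; nearly all actives have a fitted effect of over 15% in size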
#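 FRET biosensor Rango (snurportin 1 IBB between N-terminal EYFP and C-terminal Cerulean), 50 nM in PBS/1 mM DTT/0.02% Tween-20/0.1% BSA, preincubated 5 min RT with compound; 0.125 microM importin beta added, 45 min RT, CFP/YFP FRET ratio read.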
# miR-21 FLuc: raises the signal of a miR-21 reporter; HeLa miR-21 FLuc reporter, luciferase, 48 h; Potency, µM (highest dose often 38.3 µM), without a hit: at the top dose reporter change, positive = more light; 340,000 tested, under 10 active; AID 2288; active = well fitted rising curve with a large enough effect; inconclusive = small, poorly fitted or top-dose-only effect; inactive = no such curve, though single readings can be large or run the other way;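 also: % of control where 0% means no effect; miR-21 action dims this reporter so a rising signal means less miR-21 action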
#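 HeLa cells endogenously expressing miR-21, stably carrying CMV-driven firefly luciferase with a downstream miR-21 binding site, 2000 cells/well. Titrations up to approximately 40 uM, 48 hours; luciferase luminescence read.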
# Rango dissoc inh: inhibitors of RanGTP-induced Rango-importin beta complex dissociation | Biochemical FRET Rango-importin beta, RanGTP-induced dissociation | AID 540253 | O95149+P62826 | Potency, µM (doses to about 46.1 µM), inactives show at the top dose activity change, negative = inhibition | 340,000 tested, 0.071% active; active means falling FRET ratio curve, often poorly fitted, with flat reads before Ran was added; inconclusive means other falling curves, or compound fluorescence or quenching; inactive means flat or rising ratio curve;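 also: potency is read from the fitted curve at half-maximal effect; % of control where 0% means no effect; nearly all actives have a fitted effect of over 45% in size; -100% = wells without RanGTP and RCC1; the record marks most hits as doubtful in a second field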
#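 Two FRET readings bracket the reaction: one 5 min after compound meets Rango–importin beta, another 45 min after RanGTP-RCC1 (0.6 uM Ran, 0.2 uM RCC1, 2 mM GTP) is added. Only the second defines inhibition.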
# * marks the source's active call; other numbers are inactive results; ? = inconclusive; / = no result given; & = joins results of further samples. This is a subset; the hit share may differ from the screen's.
SMILES,GLA inh pH 4.5,Rango-impB inh,miR-21 FLuc,Rango dissoc inh
O=[N+]([O-])c1cc2c(cc1/C=N\NS(=O)(=O)c1ccccc1)OCO2,0,2.9%,-7%,15%
COC(=O)c1nn(-c2cccc(C(F)(F)F)c2)c(=O)cc1Sc1ccccn1,3,1.0%,-4%,1%
Cc1ccc(-c2csc3ncn(/N=C/N(C)C)c(=O)c23)o1,-3,-0.8%,-1%,3%
O=C(CNC(=O)c1cnccn1)Nc1ccc(F)c(F)c1F,-2,3.3%,-10%,15%
Cc1cc(=S)n(-c2ccccc2)n1C,-4,-2.0%,-37%,0%
CC(C)N1CCN(Cc2ccc(Oc3ncccn3)cc2)CC1CCO (stereo not given),1,1.2%,-1%,-16%
CCOCc1nnc(NC(=O)CCS(=O)(=O)Cc2ccccc2)s1,/,-1.0%,13%,18%
CCC(=O)N1CCc2cc(S(=O)(=O)CCC(=O)N3CCN(c4ccc(C(C)=O)cc4)CC3)ccc21,/,0.3%,1%&0%,1%
O=C(c1cnn2c(C(F)(F)F)cc(-c3ccco3)nc12)N1CCc2ccccc2C1,0,?,-1%,?
CN1CCN(c2ccc(NC(=O)COc3ccccc3)cc2Cl)CC1,/,-5.7%,-46%,-6%
COc1ccc(OC)c(NC(=O)CSc2nnc(-c3ccco3)n2-c2ccccc2)c1,-5,-0.2%,0%,21%
Cc1nc2sc(C(c3ccccc3)N3CC(C)OC(C)C3)c(O)n2n1 (stereo not given),-5,-1.6%,-4%,7%
Cc1cc(C)n2nc(C(=O)N/N=C/c3cccc(Cl)c3)nc2n1,-3,2.5%,-2%,1%
C=CCn1c(N2C(=O)CC(Cc3ccccc3)C2=O)nc2ccccc21 (stereo not given),10,-0.6%,-1%,6%
Cc1ccc(S(=O)(=O)N2CCN(C(=O)CCC(=O)NC3CCCc4ccccc43)CC2)cc1 (stereo not given),3,-6.3%,4%,-12%
O=c1oc2ccccc2c2c1nc(C(F)(F)F)n2-c1ccccc1,8,-3.0%,-1%,12%
COc1ccc(Cn2cc(C(=O)c3ccccc3)c(=O)c3cc(OC)ccc32)cc1,2,-3.5%,17%,1%
CCn1c(CNC(=O)COc2ccc(C(C)C)cc2)nnc1SCC(=O)Nc1ccccc1C(C)C,-9,3.6%,17%,-9%
CC(NC(=O)COC(=O)c1cc(Cl)ccc1O)C1CC2CCC1C2 (stereo not given),/,0.0%,/,21%
CCOC(=O)c1c(NC(=O)c2cc(C)on2)c2cc([N+](=O)[O-])ccc2n1C,-7,1.1%,-1%,2%
CCOC(=O)C1CCCN(C(=O)Cn2sc3nc(C)cc(C)c3c2=O)C1 (stereo not given),-3,-0.4%,?,12%
CCOC(=O)CSc1nnc(CNC(=O)c2cccc(C)c2)n1-c1ccccc1OC,-22,1.5%,-2%,11%
CSc1ccccc1NC(=O)CSc1nnc(CNC(=O)c2ccccc2F)n1C,/,-3.7%,-3%,2%
CCOC(=O)c1c(C)nc2c(c1-c1ccccc1)C(=O)CCC2,-1,0.7%,0%,-7%
COc1cc2c(cc1OC)C(c1ccc(Br)cc1)N(C(=O)c1ccccc1C(=O)O)CC2 (stereo not given),/,4.8%,-5%,12%
CCc1nnc(N/N=C/c2cccs2)n1N,10,1.3%,5%,2%
CSc1nsc(SCC(=O)Nc2ccccn2)n1,6,?,-29%,?
CC1CCCCN1S(=O)(=O)c1ccc(-n2cnnn2)cc1 (stereo not given),/,-0.1%,-3%,-3%
Cc1ccc(C)n1-c1ccncc1,-8,-1.1%,-7%,-1%
CNC(=O)c1ccc(NC(=O)CCNC(=O)Nc2ccccc2)cc1,/,-2.3%,/,8%
CCCCN1C2CCCC1CC(NC(=O)c1cccc(Cl)c1)C2 (stereo not given),/,-0.4%,-1%,-18%
CN(NC(=O)c1ccco1)c1nc2ccccc2nc1C(F)(F)F,-6,-0.4%,-1%,-6%
COc1ccc(NC(=O)C2CCN(S(=O)(=O)c3cn(C)nc3C)CC2)cc1,/,-1.6%,0%,0%
Cc1c(C(=O)Nc2ccc(S(=O)(=O)N(C)C3CCN(C)CC3)cc2)oc2ccccc12,/,-0.2%,/,-1%
COc1ccc2c(COC(=O)c3n[nH]c4ccccc34)cc(=O)oc2c1,1,?,-50%,-17%
CCN(c1ccccc1)S(=O)(=O)c1ccc(Cl)c(NC(=O)CN2CCCCCC2)c1,-6,8.0%,20%,-14%

# Single records, from the list above. Values in the order: GLA inh pH 4.5 | Rango-impB inh | miR-21 FLuc | Rango dissoc inh
# Cc1ccc(C)n1-c1ccncc1 is listed as -8 | -1.1% | -7% | -1%
# CCc1nnc(N/N=C/c2cccs2)n1N is listed as 10 | 1.3% | 5% | 2%
# CNC(=O)c1ccc(NC(=O)CCNC(=O)Nc2ccccc2)cc1 is listed as / | -2.3% | / | 8%

# More records:
SMILES,GLA inh pH 4.5,Rango-impB inh,miR-21 FLuc,Rango dissoc inh
Cc1ccc(OCCSc2nc3ccccc3n2CC(=O)O)cc1C,/,-5.6%,-4%,7%
O=C(c1cccs1)N1CCN(c2ccccc2)CC1,1,-1.3%,-21%,-1%
CCC(c1nnc(SCC(=O)Nc2c(F)cccc2F)n1Cc1ccccc1)N(C)C (stereo not given),/,-0.2%,8%,1%
C/C(=N\O)C(=O)NCc1ccccn1,0,0.7%,-6%,5%
Cc1cc(=O)[nH]c(SCCCOc2ccccc2Cl)n1,5,0.9%,-5%,10%
O=C(NN(c1ccccc1)c1ccccc1)c1ccc([N+](=O)[O-])o1,-18,0.5%,24%,30%
Nc1n[nH]c(N)c1N=Nc1cccc(F)c1,-2,-1.1%,-30%,12%
CCc1ccc(-c2ccc(C(=O)C(F)(F)F)[nH]2)cc1,3,0.1%,-59%,-7%
CC(=O)N1N=C(c2cccc(NS(C)(=O)=O)c2)CC1c1cccs1 (stereo not given),1,-0.9%,-14%,-1%
COc1ccc(CCNC(=O)CCNS(=O)(=O)c2cccc(Cl)c2)cc1OC,2,-0.2%,-7%,19%
Cc1cc(-c2ccn[nH]2)c(C)s1,10,2.6%,-9%,16%
C=C(Cl)COc1ccc2c(C)cc(=O)oc2c1,-5,2.2%,-53%,-3%
Cc1cc(NC(=O)COC(=O)[C@H](C)NC(=O)c2ccccc2)no1,4,-0.5%,0%,7%
Cc1cccc(N(Cc2ccccc2)C(=O)c2ccc(C)c(S(=O)(=O)N3CCOCC3)c2)c1,/,?,/,2%
COc1cc(/C=C/CN2CCC(CO)(CC3CCCCO3)CC2)ccc1O (stereo not given),6,-1.0%,-4%,-3%
CC[n+]1c(C)n(-c2ccccc2)c2ccc(C(=O)OC)cc21,8,-0.8%,-3%,1%
CC(=O)Nc1ccc(S(=O)(=O)N2CCN(C(=O)N3CCCCCC3)CC2)cc1,3,3.0%,-1%,-18%
Cc1nn(C)c(C)c1CN(C)C(=O)C1(C)CC1(Br)Br (stereo not given),6,0.0%,0%,-6%
O=c1[nH]c(=S)c2ncn(-c3ccccc3)c2[nH]1,-16,-1.8%,-5%,-8%
O=C(CSCc1ccc(Cl)cc1)Nc1ccc(S(=O)(=O)N2CCCCCC2)cc1,-12,-0.5%,0%,15%
Cc1cccc(C)c1NC(=O)CN1C(=O)S/C(=C\c2cccn2-c2cccc(C(=O)O)c2)C1=O,1,?,-3%,?
COC(=O)CCc1c(C)nc(N)[nH]c1=O,8,-0.1%,-1%,2%
Cc1cc(/C=C2/SC(=S)N(c3cccc(C(F)(F)F)c3)C2=O)c(C)n1-c1cccnc1,/,?,/,?
Cc1cccc(NS(=O)(=O)c2cccc(C(=O)N3CCN(S(=O)(=O)c4ccccc4)CC3)c2)c1,/,0.8%,/,0%
O=C(c1cccc(C(F)(F)F)c1)N1CCC(O)(CS(=O)(=O)Cc2ccc(Cl)cc2)CC1,0,4.2%,0%,2%
CCc1oc(C(=O)O)cc1COC,4,-3.7%,2%,1%
Cc1cc(C)n(C(=O)c2ccc([N+](=O)[O-])cc2Cl)n1,/,0.1%,-1%,6%
Cc1cc(=O)[nH]c(SCC(=O)OCc2ccccc2)c1C#N,-10,0.2%,-32%,-7%
CCCCOc1ccc(/C=N/NC(=S)Nc2cccc(C)c2C)cc1,-6,3.3%,-2%,5%
COc1ccccc1-c1cc(C(F)(F)F)nc(NCc2cccs2)n1,-4,0.3%,-7%,13%
O=C(Nc1ccc(Cl)c(Cl)c1)c1csc(-c2ccccc2)n1,0,-1.1%,0%,1%
CNS(=O)(=O)c1cccc(C(=O)OCC(=O)c2c(N)n(Cc3ccccc3)c(=O)n(C)c2=O)c1,/,-6.1%,/,17%
O=C(COC(=O)/C=C/c1ccc(F)cc1)NCc1ccc2c(c1)OCO2,/,-0.9%,/,10%
O=C(O)CNC(=O)c1ccc(NS(=O)(=O)c2ccc3ccccc3c2)cc1,/,-0.7%,1%,6%
CNc1nc(C)c(C(C)=O)cc1C#N,5,-2.9%,-10%,1%
O=S(=O)(NCC(Nc1ccc(Cl)cc1)c1ccccc1)c1ccc(Cl)cc1 (stereo not given),-12,-0.2%,10%,1%
CCN(CC)S(=O)(=O)c1cc(NC(=O)C(=O)c2c(-c3ccccc3)cc3ccccn23)ccc1C,-9,6.1%,30%,14%
CCOc1cc(-c2nnc(NC(=O)c3ccco3)o2)cc(OCC)c1OCC,/,0.4%,/,-6%
COc1cccc(NC(=O)Cn2c(=O)n(CC3CCCO3)c(=O)c3ccccc32)c1 (stereo not given),6,1.8%,-2%,-19%
CC(=O)NS(=O)(=O)c1ccc(NC(=S)NC(=O)C2CCC2)cc1,/,-1.8%,-1%,1%
CN(CC(=O)Nc1cccc(F)c1)CC(=O)Nc1cccc(S(=O)(=O)N2CCCCC2)c1,/,6.8%,/,16%
CC(C)(C)c1ccc(/C=N/NC(=O)Cc2c[nH]c3ccccc23)cc1,-7,1.4%,-1%,-1%
CCOC(=O)C1(Cc2ccccc2C)CCCN(C(=O)CCn2nccc2C)C1 (stereo not given),-3,-1.5%,1%,-5%
CCc1ccc(NC(=S)Nc2cc(OC)c(NC(=O)C(C)C)cc2OC)cc1,-2,-3.7%,-22%,-4%
CC(C)CN(C(=O)C1CCCC1)C1CCS(=O)(=O)C1 (stereo not given),/,7.1%,/,2%
Cc1ccc(N/N=C/c2cccnc2)cc1,-17,1.8%,-33%,6%
OCc1ccccc1OCCCN1CCC(Cc2ccccc2)CC1,/,-0.5%,1%,10%
COC(=O)c1c(C)c[nH]c1C,2,4.5%,0%,4%

# The closing three compounds of the section before lead into the next.
SMILES,GLA inh pH 4.5,Rango-impB inh,miR-21 FLuc,Rango dissoc inh
Cc1ccc(N/N=C/c2cccnc2)cc1,-17,1.8%,-33%,6%
OCc1ccccc1OCCCN1CCC(Cc2ccccc2)CC1,/,-0.5%,1%,10%
COC(=O)c1c(C)c[nH]c1C,2,4.5%,0%,4%
S=c1[nH]nc(-c2ccco2)n1/N=C/c1ccccc1,-4,-0.1%,-1%,19%
COc1ccc(CCNC(=O)CSc2nnc(C(C)N(C)C)n2Cc2ccccc2)cc1OC (stereo not given),-12,-4.4%,-13%,-10%
COc1ccc(C(N)=S)cc1,0,?,-7%,?
CC(=O)Nc1ccc(C)c(NS(=O)(=O)c2cccc(C(F)(F)F)c2)c1,2,-4.3%,0%,6%
CCCCn1c(O)c(N=NC(=O)c2ccco2)c2ccccc21,1,-0.6%,-29%,-13%
CCOc1ccc(OCCSc2nnnn2-c2ccccc2)cc1,3,1.9%,-12%,-7%
COc1ccc(N(C(C)=O)C2C=CS(=O)(=O)C2)c(OC)c1 (stereo not given),1,-0.3%,0%,5%
Cc1ccc(-n2ccc(-c3nn(-c4ccccc4)ccc3=O)n2)cc1,6,-0.9%,3%,-3%
COc1ccc(Cc2nnc(SCC(=O)N3CCCC(C)C3)o2)cc1 (stereo not given),11,5.9%,10%,-9%
CC(=O)Nc1ccc(S(=O)(=O)Oc2ccc(/C=N/N=C3/NC(=O)C(CC(=O)O)S3)cc2)cc1 (stereo not given),6,0.2%,0%,12%
